From PubChem
Lassa entry inh: inhibitors of Lassa virus binding or cell entry. Lassa virus pseudotype entry inhibition, cell reporter; control for the full effect not named in the record. Potency, µM (doses to about 37.9 µM), for the others: at the top dose activity change, negative = inhibition, hits mostly inhibitors. 300,000 tested, 1.2% active. AID 540256; active means well fitted inhibition curve with a large enough effect; inconclusive means small, poorly fitted or top-dose-only effect, or effect the other way; inactive means flat fitted curve, though single readings scatter; tested in HEK293 cells; note: % is set by controls: 0 for no effect and ±100 for the full control effect; nearly all actives have a fitted effect of over 50% in size; luciferase read-out
NS1 inh: inhibitors of influenza NS1 protein function; S. cerevisiae slowed by influenza A NS1, growth recovery by OD600; AID 2326; 270,000 tested, 0.4% active; Potency, µM (highest dose often 46.1 µM), without a hit: at the top dose activity, positive = more growth; active means well fitted rising curve with a large enough effect; inconclusive means small, poorly fitted or top-dose-only effect; inactive means no such curve, though single readings can be large or run the other way; note: nearly all actives have a fitted effect of over 50% in size
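Read-out: OD600 growth recovery of NS1-expressing budding yeast. Cells grown overnight at 30C in -URA glucose medium, washed, resuspended and diluted 1:100 in 2% galactose assay medium, pH 6.0. Same strain lacking NS1 served as positive control.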
Cruzain noTriton: inhibitors of Trypanosoma cruzi cruzain without detergent. P25779. 200,000 tested, 2.3% active. purified cruzain, Z-FR-AMC fluorescence, no detergent. Potency, µM, inactives show max response, negative = inhibition, actives largely listed as inhibitors;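 note: plate controls were enzyme without inhibitor for no effect and buffer without enzyme for full effect; nearly all actives have a fitted effect of over 40% in size; top concentration of the series not given in the record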
Target sequence (P25779 123-467 limits assumed): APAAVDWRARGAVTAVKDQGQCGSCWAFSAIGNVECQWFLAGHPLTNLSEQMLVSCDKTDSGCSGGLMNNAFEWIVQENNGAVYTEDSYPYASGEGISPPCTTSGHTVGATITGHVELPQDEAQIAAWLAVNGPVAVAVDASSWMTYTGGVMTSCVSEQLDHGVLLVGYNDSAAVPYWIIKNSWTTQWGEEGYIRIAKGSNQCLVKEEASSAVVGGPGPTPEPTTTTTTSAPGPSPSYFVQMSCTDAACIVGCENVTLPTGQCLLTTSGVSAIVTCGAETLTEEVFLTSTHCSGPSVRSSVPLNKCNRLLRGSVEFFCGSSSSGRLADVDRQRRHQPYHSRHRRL
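Detergent-free condition (0.00005% Triton X-100) in acetate buffer pH 5.5 with DTT. 1.5 nM enzyme and compound were pre-mixed 15 min, then 2 uM Z-FR-AMC substrate added; reaction progress from fluorescence change between first and third reads (60 s).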
Cruzain Triton: blocks cruzain activity in presence of Triton detergent. AID 1478. Potency, µM, without a hit: max response, negative = inhibition, usual class: inhibitors. 200,000 tested, 0.43% active. P25779. purified cruzain, Z-FR-AMC fluorescence, 0.01% Triton;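 note: plate controls were neutral wells for no effect and buffer without enzyme for full effect; nearly all actives have a fitted effect of over 40% in size; top concentration of the series not given in the record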
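Sodium acetate buffer (100 mM, pH 5.5) containing 5 mM DTT and 0.01% Triton X-100 hosted 1.5 nM cruzain and test compound for 15 min at room temperature. Cleavage of 2 uM Z-FR-AMC was then tracked by fluorescence.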
SARS PLpro yeast: inhibitors of SARS-CoV papain-like protease in yeast. S. cerevisiae expressing SARS-CoV PLpro, growth rescue; control for the full effect not named in the record. Potency, µM (doses to about 32.9 µM), for the others: top-dose activity, positive = growth rescue. 330,000 tested, 0.19% active; active means well fitted rising curve with a large enough effect; inconclusive means small, poorly fitted or top-dose-only effect; inactive means no such curve, though single readings can be large or run the other way; note: 0% is about no effect; nearly all actives have a fitted effect of over 55% in size; growth read by luminescence after 48 h
RE007 growth inh: less growth of the S. pombe RE007 Vpr strain; Potency, µM (top dose mostly 92.2 µM), for inactives: top-dose activity change, negative = less growth; AID 651644; S. pombe RE007 Vpr strain, BacTiter-Glo ATP luminescence, 24 h; control for the full effect not named in the record; 360,000 tested, 0.21% active; active = well fitted falling curve with a large enough effect; inconclusive = small, poorly fitted or top-dose-only effect; inactive = no such curve, though single readings can be large or run the other way;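 note: % is set by controls: 0 for no effect and ±100 for the full control effect; nearly all actives have a fitted effect of over 50% in size; the assay follows cell death caused by Vpr and the record does not say whether a fall means rescue or toxicity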
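Fission yeast strain RE007, carrying one chromosomally integrated HIV-1 vpr copy, was seeded at OD 0.01 in PMG+AL medium with 23 nL pinned compound. After 24 h at 30 °C and 99% humidity, viability was read by BacTiter-Glo luminescence.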
StopGo reporter: lowers the luciferase signal of an FMDV 2A StopGo reporter; human cells with a luciferase reporter of 2A StopGo recoding; control for the full effect not named in the record; Potency, µM (top dose mostly 57.9 µM), without a hit: at the highest dose signal change, negative = less light; 410,000 tested, 1.2% active; AID 1159524; active = well fitted falling curve with a large enough effect; inconclusive = small, poorly fitted or top-dose-only effect; inactive = no such curve, though single readings can be large or run the other way; tested in HEK293T cells; note: % is set by controls: 0 for no effect and ±100 for the full control effect; nearly all actives have a fitted effect of over 45% in size; luciferase light after 4 h
MARV entry inh: inhibitors of Marburg virus binding or cell entry; 300,000 tested, 1.8% active; Potency, µM (titrated, usually from 37.8 µM), for the others: at the highest dose activity change, negative = inhibition, hits mostly inhibitors; Marburg virus pseudotyped entry inhibition, cell reporter; control for the full effect not named in the record; about a third of the inactives were read at about 46 µM; active = well fitted inhibition curve with a large enough effect; inconclusive = small, poorly fitted or top-dose-only effect, or effect the other way; inactive = flat fitted curve, though single readings scatter; tested in HEK293 cells; about a fifth of its hits are not listed in these tables; note: % is set by controls: 0 for no effect and ±100 for the full control effect; luciferase read-out
Starred values were filed as active, the others as inactive; ? = inconclusive; / = no result given; & = joins results of further samples; [ ] = another dose, or the depositor's remark. Unless noted, calls come from the whole dose curve; as a rule, active = well fitted curve in the direction sought with a large enough effect; inconclusive = small, poorly fitted or top-dose-only effect, or another doubt; inactive = no such curve, though single readings can be large; an effect the other way counts as inactive or inconclusive. Potency is the fitted concentration of half-maximal effect. The order is random. Share with any hit: about 4.7%.

Values run as follows: RE007 growth inh	NS1 inh	SARS PLpro yeast	Lassa entry inh	MARV entry inh	Cruzain Triton	Cruzain noTriton	StopGo reporter
> O=c1oc2ccccc2c(NCCc2ccccc2)c1[N+](=O)[O-]
 : 1%	18%	-18%	?	-11%	-1.8%	-2%	1%
> c1cc2ccc3ccc(CN4CCOCC4)c4ccc(c1)c2c34
 : -22%	-36%	-9%	17%	19%	-12%	-6%	/
> Cc1cnc(C(=O)OCC(=O)Nc2ccc(Cl)cc2)cn1
 : -5%	-12%	0%	-3%	-19%	0.4%	-2%	-4%
> C/C(=N\NC(=O)c1nnn(-c2nonc2N)c1CN1CCc2ccccc21)c1ccccc1O
 : -5%	7%	0%	/	/	/	/	5%
> CCCCNC(=O)Nc1cnn(CC)c1C(N)=O
 : -2%	1%	6%	2%	-5%	5.3%	-8%	-16%
> Cc1cccc(N2CCN(S(=O)(=O)c3ccc(F)c(C(=O)Nc4ccc(C(C)C)cc4)c3)CC2)c1C
 : /	/	/	1%[46.1 µM]	/	0.1%	-18%	-2%
> Cc1cccc2cc(C#N)c(NCCNS(=O)(=O)c3ccc4c(c3)OCCO4)nc12
 : -6%	-34%	0%	-3%	?	-2.2%	-3%	23%
> CCN1CCN(C(=O)CCc2nnc3ccc(N4CCC5(CC4)OCCO5)nn23)CC1
 : 5%	-11%	-12%	/	/	/	/	-9%
> Cc1ccc(N=Cc2c(O)n(-c3nccs3)c(=O)c3ccccc23)cc1
 : 4%	-4%	-22%	-16%	?	-8.7%	-1%	-22%
> O=C(O)c1cccc(NC(=O)c2cccc(S(=O)(=O)N3CCc4ccccc43)c2)c1
 : -14%	12%	0%	29%	5%[46.1 µM]	/	/	5%
> CCc1ccc(NC(=O)c2ccc(Cn3cc([N+](=O)[O-])cn3)cc2)cc1
 : 0%	11%	19%	2%	17%	-2.9%	7%	29%
> CN(C)S(=O)(=O)c1ccc(C(=O)NCCSc2c(-c3ccc(Cl)cc3)[nH]c3ccccc23)cc1
 : /	/	/	?	?	0.3%	?	?
> COc1ccc(-c2nnnn2-c2ccccc2OC)cc1
 : 5%	-12%	-14%	?	?	-1.8%	7%	19%
> CN(C)c1ccc(C=NNc2nc3c([nH]2)c(=O)n(C)c(=O)n3C)cc1
 : 9%	/	/	-30%[46.1 µM]	?	/	/	-20%
> O=C(NCC(c1cccs1)S(=O)(=O)c1cccs1)c1ccccc1 (stereo unspecified)
 : /	/	/	-7%[46.1 µM]	/	1.0%	-5%	-4%
> COc1cc(OC)cc(N2CC(C)(C)C2=O)c1
 : -1%	/	0%	16%	-5%[46.1 µM]	/	/	-11%
> COC(=O)c1cc(S(=O)(=O)N2CCN(c3cccc(OC)c3)CC2)cn1C
 : 6%	1%	-4%	0%[46.1 µM]	-6%[46.1 µM]	/	/	15%
> COc1ccccc1C(=O)NC(=O)CSc1ccc(C)c(C)c1
 : -8%	/	-8%	6%	11%	/	/	-5%
> O=C1CN(C(=O)COC(=O)C2CCN(S(=O)(=O)c3ccccc3C(F)(F)F)CC2)c2ccccc2N1
 : 1%	0%	1%	0%	14%	4.0%	?	-8%
> O=C(NN1C(=O)c2ccccc2NC1c1ccccn1)c1ccc(Br)cc1 (stereo unspecified)
 : -4%	6%	-1%	13%	6%	6.0%	-14%	-8%

Some of the entries above in another layout.
| compound | RE007 growth inh | NS1 inh | SARS PLpro yeast | Lassa entry inh | MARV entry inh | Cruzain Triton | Cruzain noTriton | StopGo reporter |
| --- | --- | --- | --- | --- | --- | --- | --- | --- |
| CN(C)c1ccc(C=NNc2nc3c([nH]2)c(=O)n(C)c(=O)n3C)cc1 | 9% | / | / | -30%[46.1 µM] | ? | / | / | -20% |
| O=C(NCC(c1cccs1)S(=O)(=O)c1cccs1)c1ccccc1 (stereo unspecified) | / | / | / | -7%[46.1 µM] | / | 1.0% | -5% | -4% |
| COc1cc(OC)cc(N2CC(C)(C)C2=O)c1 | -1% | / | 0% | 16% | -5%[46.1 µM] | / | / | -11% |
| COC(=O)c1cc(S(=O)(=O)N2CCN(c3cccc(OC)c3)CC2)cn1C | 6% | 1% | -4% | 0%[46.1 µM] | -6%[46.1 µM] | / | / | 15% |

Carrying on.
Values run as follows: RE007 growth inh	NS1 inh	SARS PLpro yeast	Lassa entry inh	MARV entry inh	Cruzain Triton	Cruzain noTriton	StopGo reporter
> Cc1cccc(-n2c(Cc3ccccc3)nnc2SCc2ccc([N+](=O)[O-])cc2)c1
 : 1%	-9%	-20%	?	-18%	-7.4%	-4%	-25%
> COc1cc(OC)cc(C(=O)Nc2cccc(-c3ccc(N4CCOCC4)nn3)c2)c1
 : 3%	/	0%	4%	16%	/	/	-4%
> CCc1nnc(NS(=O)(=O)c2ccc(NC(=O)/C=C/c3ccc(OC)cc3OC)cc2)s1
 : -12%	?	6%	3%	16%	?	22%	4%
> CC(C)c1nc2sc3c(c2c(=O)n1N)CC(C)(C)OC3
 : 13%	/	1%	5%[46.1 µM]	3%[46.1 µM]	/	/	-7%
> Cc1ccc(/C=C/C(=O)NCCCc2ccccc2)cc1
 : -1%	-2%	0%	10%	8%	-0.1%	-3%	5%
> CCOC(=O)C(NC(=O)CC(C)C)(Nc1cc(C)on1)C(F)(F)F (stereo unspecified)
 : 8%	5%	7%	27%	-13%	-0.7%	2%	-4%
> CCOc1ccccc1OCCCC(=O)NNC(=O)c1nn(C)c(=O)c2ccccc12
 : -4%	/	4%	0%	?	/	/	-8%
> CCCCN(C(=O)c1ccc(N(C)S(=O)(=O)c2ccc(C)cc2)cc1)c1c(N)n(CCCC)c(=O)[nH]c1=O
 : 0%	/	-8%	26%	-19%[46.1 µM]	/	/	1%
> O=C(O)CN1CCN(Cc2ccccc2)C1=O
 : -5%	-8%	1%	-10%	16%	2.5%	1%	5%
> COc1ccc(C(=O)N[C@H](C(=O)OCc2cc(=O)oc3cc(C)ccc23)C(C)C)cc1
 : 22%	-2%	-2%	0%	2%	-1.4%	3%	24%
> COc1cc2ccc(=O)oc2c(O)c1O
 : -5%	/	/	/	/	-2.6%&-3.1%	-5%&-10%	-29%&-5%
> O=C(c1ccc(F)cc1F)N1CCCN(c2nc(-c3ccccc3)ns2)CC1
 : 4%	-12%	-4%	/	/	/	/	-10%
> COC(=O)c1sc(NC(=O)c2csc3c2CCCC3)nc1C
 : 3%	-9%	-9%	0%	7%	-4.8%	?	26%
> Cc1cc(C)c2c(n1)SCC(=O)N2CC(=O)Nc1ccccc1C
 : /	/	/	17%[46.1 µM]	3%[46.1 µM]	-0.2%	1%	-15%
> Cc1ccccc1N=Nc1c(C)[nH]n(C(N)=S)c1=O
 : 3%	-16%	4%	18%	-1%	-21%	-20%	10%
> CC(C)(C)c1ccc(C(=O)NCc2nnc(SCC(=O)NC3CCCCC3)o2)cc1
 : 2%	22%	7%	-7%	0%	/	/	0%
> CC1(C)S[C@@H]2[C@H](NC(=O)[C@H](N)c3ccc(O)cc3)C(=O)N2[C@H]1C(=O)O
 : -12%	-8%	1%	-22%	9%	-3.5%	1%	-11%&-3%
> CCC(=O)Nc1nc(-c2ccccc2)ns1
 : 1%[3.69 µM]	-18%	-35%	-6%	9%	-2.5%	0%	6%
> O=C(CCCn1c(=O)[nH]c2ccsc2c1=O)N1CCN(c2ccc(Cl)cc2)CC1
 : /	/	/	15%[46.1 µM]	26%[46.1 µM]	-1.3%	4%	28µM*
> CCOC(=O)c1c(O)cc(C)[nH]c1=O
 : 2%	5%&1%	-1%&1%	/	/	/	/	0%
> COC(=O)Nc1ccc(S(=O)(=O)N2CCN(CCN3C(=O)C4C5C=CC(C5)C4C3=O)CC2)cc1 (stereo unspecified)
 : 6%	-5%	5%	-2%	13%	5.6%	15%	-18%
> Cc1ccc(Cl)cc1NC(=O)Nc1cccs1
 : -15%	/	5%	-3%	10µM*	/	/	4%
> NC(=O)C1(N2CCCCC2)CCN(C2CC(=O)NC2=O)CC1 (stereo unspecified)
 : -22%	3%	-7%	7%	7%	1.4%	4%	7%
> COc1ccc(C2=NOC(C)(c3nnc(-c4ccc(F)cc4)o3)C2)cc1 (stereo unspecified)
 : 4%	5%	-3%	/	/	/	/	-11%
> CCOC(=O)C1=C(C)OC(N)=C(C#N)C1c1cc(OC)c2c(c1)OCO2 (stereo unspecified)
 : -19%	1%	-3%	6%	0%	-7.5%	-10%	0%
> CCc1ccc(NC(=O)c2ccnc(C(C)(C)C)c2)cc1
 : 2%	-26%	-4%	-5%	0%	3.2%	-3%	-8%
> CN(CC(=O)Nc1ccccc1Br)C(=O)CNC(=O)Cc1cccc2ccccc12
 : 3%	-15%	-4%	5%	13%	/	/	-28%
> Cc1cccc(-c2ncc(CN3CCN(C4CCCC4)C(CCO)C3)cn2)c1 (stereo unspecified)
 : 11%	0%	0%	-17%	?	/	/	-11%
> Cc1ccc(C)c(NC(=O)c2ccc3c(c2)N(Cc2ccc(F)cc2)C(=O)CS3=O)c1 (stereo unspecified)
 : 2%	?	-23%	?	2.6µM*	0.4%	20%	-19%
> Cc1ccc(Cc2c(C)nc3nc(SCC(=O)NC4CCC(C)CC4)nn3c2C)cc1 (stereo unspecified)
 : /	/	/	?	/	-0.4%	4%	-9%
> COCCn1c(CCC(=O)O)ccc1-c1cccs1
 : 10%	/	0%	-11%	-4%	/	/	-4%
> CCOc1ccccc1-c1noc(CSc2nnc(-c3ccccc3)n2-c2ccc(F)cc2)n1
 : /	/	/	?	?	-1.7%	7%	0%
> CN(C)CCN(Cc1ccco1)C(=O)c1oc2ccccc2c1NC(=O)c1ccccc1
 : /	/	/	-5%[46.1 µM]	/	-2.0%	10%	-15%
> COc1ccc(/C=C(/NC(=O)c2ccc(OC)c(OC)c2)C(=O)NCCCn2ccnc2)cc1
 : -7%	19%	4%	15%[46.1 µM]	0%[46.1 µM]	/	/	-7%
